# Sa helicase inh: blocks Staphylococcus aureus DNA helicase | purified S. aureus helicase, fluorescence unwinding assay; about half of the hits fall short of the stated cut | inhibition, %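 (tested at about 80 µM)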 | actives 0.05% (n = 120,000);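 active = both duplicates at 50% or more, or one of them with a favoured structure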;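 also: 0% = mean of negative control wells and 100% = mean of positive control wells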
# MgrA-DNA mod: alters Staphylococcus aureus MgrA binding to DNA; fluorescence polarization; inhibition, %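 (about 10 µg/mL by stock and volumes)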; actives 0.13% (n = 84,000); AID 602314;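 active = above 50% in either of two replicates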;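 also: 0% = protein plus DNA without compound and 100% = DNA alone without protein; higher means less MgrA bound to DNA so lower polarization; one replicate is shown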
# Starred values were filed as active, the others as inactive; · = no result given. The list is partial; rates above refer to the full screens.
SMILES,Sa helicase inh,MgrA-DNA mod
COc1ccc(-c2c(C)oc3cc(OC(C)C(=O)O)ccc3c2=O)cc1OC (stereo not given),1,·
CC(C)CNC(=O)c1cccc(NC(=O)CC(C)C)c1,14,3.0
CCCCC(=O)Nc1ccccc1C#N,9,-0.1
COc1ccc(C(=O)N(c2ccccn2)C2CCCCC2)c(OC)c1,-3,·
COc1ccccc1N1CCN(C(=O)c2cc(C)on2)CC1,·,-2.9
CC(C)N(C(=O)CSc1nnc(Cn2nnc3ccccc32)n1C)C(C)C,-3,0.3
O=C(O)c1csc(C2COc3ccccc3O2)n1 (stereo not given),·,0.7
CCC(C)(C)NC(=O)C1CCC(CNS(=O)(=O)c2cccc3nsnc23)CC1 (stereo not given),18,·
CCc1ccc(OCC(=O)N(CC)CC)cc1,10,-2.0
Cc1ccc2occ(CN3CCSCC3)c(=O)c2c1,17,-1.4
O=C1c2ccccc2C(=O)C1(Nc1ccccc1)c1ccccc1,-7,0.9
NNC(=O)c1nn(-c2ccc(Cl)cc2)cc1O,1,·
O=C(COC(=O)c1cccc(C(F)(F)F)c1)NC1CCS(=O)(=O)C1 (stereo not given),9,·
CCOc1ccc(C(=O)CSc2nnc3c(n2)CCCC3)cc1NC(=O)CC,3,-1.3
COc1ccc(NC(=O)CSc2nc(O)cc(=O)[nH]2)cc1,4,-0.1

# Copied from the list:
# `O=C1c2ccccc2C(=O)C1(Nc1ccccc1)c1ccccc1` in MgrA-DNA mod is listed with 0.9
# `COc1ccc(C(=O)N(c2ccccn2)C2CCCCC2)c(OC)c1` in Sa helicase inh is listed with -3

# More entries follow:
SMILES,Sa helicase inh,MgrA-DNA mod
COC(=O)C1=C(C)NC(=O)/C1=C\c1ccc(Cl)cc1,19,14
O=C(c1cc2ccccc2nc1-c1ccco1)C(F)(F)F,17,·
COc1cc(C(=O)Nc2ccc3c(c2)ncn3C(C)(C)C)cc(OC)c1OC,-24,·
CCOc1nc(N)c(C#N)c(-c2ccccc2)c1C#N,·,-4.3
CCOc1ccc2nc(NC(=O)CCc3ccccc3)sc2c1,8,·
Nc1ccc2c(c1)CN(Cc1ccccc1)C2,0,-3.8
O=C(c1ccc2c(Cl)c3c(nc2c1)CCC3)N1CCN(C(=O)c2ccco2)CC1,-20,·
O=C1CCCC2=C1C(c1cccs1)CC(=O)N2c1ccccc1 (stereo not given),12,3.4
CCOC(=O)c1c(C)nc2c(c1-c1ccc(OC)c(OC)c1)C(=O)c1ccccc1-2,3,-1.5
CN(Cc1ccccc1)S(=O)(=O)c1ccccc1,1,-2.2
CCc1nnc(SCC(=O)Nc2cccc(C)c2)nc1CC,1,·
CN(C)C(CNS(=O)(=O)c1ccc(Cl)cc1)c1ccccc1 (stereo not given),2,·
Cc1ccc2nc(NC(=O)C(F)(F)F)sc2c1,8,-4.0
O=C(c1ccc2c(=O)[nH][nH]c(=O)c2c1)N1CCN(c2cccc(C(F)(F)F)c2)CC1,-5,·
CCCS(=O)(=O)N1CCN(S(=O)(=O)c2ccccc2)CC1,18,-0.6
CC(NC(=O)CN1C2CCC1CC(=O)NC2)c1ccccc1 (stereo not given),-12,1.3
COc1ccc(S(=O)(=O)N2Cc3ccccc3CC2C(=O)NC(C)(C)C)cc1OC (stereo not given),27,·
Cc1[nH]cnc1C(=O)N/N=C/c1ccncc1,6,·
CCC1C(=O)C(C)(C)C(=O)OC1c1cccc(Br)c1 (stereo not given),-1,1.7
Cc1cccc(NC(=O)CSc2nc3c(oc4ccccc43)c(=O)n2C2CCCC2)c1C,8,·
CC(CC(=O)NCC(c1ccc(F)cc1)N1CCOCC1)n1ccnc1 (stereo not given),3,·
COC(=O)c1oc2ccccc2c1N,·,-1.0
CCOC(=O)CSc1nnc(-c2c[nH]c3ccccc23)n1-c1ccc(F)cc1,7,·
CNc1ccc(Cl)cc1C(=O)NCc1ccco1,·,-1.6
O=C(CSc1ccccn1)c1ccc(OCc2ccc(F)cc2)cc1,·,0.8
O=C(Nc1ccc(-c2nc3cc(Cl)cc(Cl)c3o2)cc1)c1ccc2c(c1)OCCO2,15,0.3
N/C(=N\O)c1snnc1-c1ccccc1,·,-1.1
CC1Cc2ccccc2N1C(=O)CSc1nc(-c2ccco2)cc(C(F)(F)F)n1 (stereo not given),-9,1.9
Cc1nc(Oc2ccc(NC(=O)c3ccccc3)cc2)c2c3c(sc2n1)CCC3,4,2.5
CCn1c(SCC(N)=O)nnc1C(C)Oc1ccc(F)cc1 (stereo not given),1,-1.4

# Reformatted with values under each structure: part of the list above.
# Sequence of screens – Sa helicase inh | MgrA-DNA mod
- CCn1c(SCC(N)=O)nnc1C(C)Oc1ccc(F)cc1 (stereo not given)
  1 | -1.4
- N/C(=N\O)c1snnc1-c1ccccc1
  · | -1.1
- CNc1ccc(Cl)cc1C(=O)NCc1ccco1
  · | -1.6
- Cc1cccc(NC(=O)CSc2nc3c(oc4ccccc43)c(=O)n2C2CCCC2)c1C
  8 | ·

# Continuation:
SMILES,Sa helicase inh,MgrA-DNA mod
Cc1ccccc1Nc1nc(N)nc(COc2ccc3c(C)cc(=O)oc3c2)n1,4,·
COc1ccccc1Nc1nc(N)nc(CN2CCc3ccccc3C2)n1,0,-2.0
CCCOc1ccc2c(-c3ccccc3)cc(=O)oc2c1,21,·
O=C(c1ccc(F)cc1)N1CCCCC(Sc2nnc(-c3ccc4c(c3)OCO4)o2)C1=O (stereo not given),6,·
O=C(COc1cc(Cl)ccc1Cl)NCc1ccccc1,-5,1.2
Cc1oc2c(c1C(=O)Nc1ccc(C(=O)O)cc1)CCCC2,10,2.1
N#Cc1ccc(COC(=O)Cc2ccccc2)cc1,27,-0.8
O=C(Cn1cnc2c(nnn2-c2ccccc2)c1=O)NC1CCCC1,16,·
CCN(CC)S(=O)(=O)c1ccc2nc(SC)sc2c1,2,2.9
O=C1CCC(=O)N1c1ccc(Cl)cc1,9,-6.8
CN(Cn1[nH]c(-c2cccs2)nc1=S)C1CCCCC1,2,·
Cc1nnc(-c2ccccc2)c(=O)n1/N=C/c1cccs1,16,3.4
Oc1ccc2ccccc2c1CN1CCN(Cc2cccs2)CC1,16,·
Cc1ccnc2c1ccc1ccccc12,-31,·
Cc1ccc2c(c1)N(C(=O)Nc1ccccc1)CC(C)O2 (stereo not given),4,0.4
Nc1nc(Sc2nc3cc(Cl)ccc3s2)n[nH]1,22,·
O=C(CSc1nncs1)NCc1cccs1,1,·
CCCn1c(NC(=O)Cc2coc3ccc4ccccc4c23)nc2ccccc21,-23,·
CCS(=O)(=O)Nc1ccc(C(=O)NC2CC2)cc1,0,-1.9
CC(C)(C)c1cc(C(C)(C)C)cc(S(=O)(=O)CCc2ccccn2)c1,19,5.4
CSc1nc2nc(C)cc(C)n2n1,10,-0.7
CC(=O)OCC12CC=C(C)C(C1)C(c1ccccc1OC(C)=O)OC2 (stereo not given),21,·
CC1CN(C)C(C)CC1OC(=O)c1ccccc1Cl (stereo not given),18,·
CC/C(Cc1ccccc1)=N\NC(=O)Cn1nnc2ccccc21,-12,·
Cc1ccc2c(COC(=O)CNC(=O)c3ccco3)cc(=O)oc2c1C,5,·
CCN1CCCC1CNCc1cccc(OC)c1OC (stereo not given),6,-1.2
Cc1ccc(S(=O)(=O)NC(=O)N2CCCN(c3ccc(C(F)(F)F)cn3)CC2)cc1,·,-2.1
COc1cc(C#N)ccc1OCC(=O)NC(C)c1ccc2c(c1)OCO2 (stereo not given),-5,·
O=C(Nc1ccc2c(c1)OCCO2)c1cccs1,·,0.9
Cn1c(C(=O)O)c(CC(=O)N2CCCCCC2)c2ccccc21,7,-5.5
CCOC(=O)c1ccc(N2C(=O)c3n[nH]c(C)c3C2c2ccc(Cl)cc2Cl)cc1 (stereo not given),-26,·
Cn1c(=O)[nH]c(=O)c2c1nc(N(CCO)Cc1ccccc1)n2CCCc1ccccc1,11,·
Cc1nc(SCC(=O)C(C)(C)C)[nH]c(=O)c1Cc1c(Cl)cccc1Cl,·,-0.3
NC(=O)CC1C(=O)N(c2ccc(F)cc2)C(=O)N1NC(=O)CCc1ccccc1 (stereo not given),5,0.6
COc1ccccc1NC(=O)Cn1cnc2c(cnn2C(C)(C)C)c1=O,-1,1.9
N#C/C(=C1/CCCCCN1)c1nc2ccccc2s1,9,-1.6
NC(=O)c1c(C(F)(F)F)cc[nH]c1=O,·,-1.1
O=C(Nc1cccc(OC(=O)c2ccco2)c1)c1ccccc1,1,-1.1
O=[N+]([O-])c1ccc(-c2nn[nH]n2)cc1,·,0.8
CCC(=O)Nc1ccccc1C(=O)OCC(=O)Nc1ccc(S(N)(=O)=O)cc1,13,-1.4
CCN(CC)S(=O)(=O)c1cccc(S(=O)(=O)c2ccc(C)c(S(=O)(=O)N(CC)CC)c2)c1,4,·
COc1ccc(Cl)cc1N(C)C(=O)Cn1nc(Cc2ccncc2)c2ccccc2c1=O,6,·
Cc1ccccc1NC(=O)Cn1cc2c(n1)CCCCC2,-7,·
CSc1ncc(CO)n1Cc1ccccc1,·,-0.5
Cc1cc(-c2nnnn2-c2ccc(C(F)(F)F)cc2)no1,·,-1.7
CCN(CC)S(=O)(=O)c1ccc(N=Nc2c(C)nn(-c3ccccc3)c2N)cc1,3,·
CCc1cccc(NC(=O)C(Cc2ccccc2)NS(=O)(=O)c2ccc3c(c2)CCC(=O)N3)c1 (stereo not given),13,5.6
COc1ccc2c(c1)CCN(Cc1cc3sccc3n1CC1CCCCC1)C2,4,-4.0
Cc1ccc(CNC(=O)c2ccc3c(=O)n4c(nc3c2)CCCCC4)cc1,19,·
O=C(N/C=N/O)c1ccccc1-n1ccnc1,·,1.1
CC1(C)CC(=O)C=C(NCc2ccc(C(=O)O)cc2)C1,5,-6.0
Cc1nc2c(C(=O)NCC3CCCO3)cnn2c(C)c1Cc1ccccc1Cl (stereo not given),9,-0.1
Cc1nc2ccccc2n1S(=O)(=O)N(C)C,7,·
CS(=O)(=O)c1ccc(C(=O)O)c(O)c1C(=O)O,-2,1.2
O=C(c1c[nH]c2ccccc12)C1CCCCC1,9,·
CCOC(=O)C1CCN(C(=O)CCS(=O)(=O)c2ccc3c(c2)CC(C)N3C(=O)CC)CC1 (stereo not given),-19,·
CCc1ccccc1NC(=O)c1cc2c(=O)n3ccccc3nc2n1C,1,-4.3
CCCNc1ncnc2onc(-c3ccc(F)cc3)c12,19,·
Cc1cc(-c2ccc(Cl)cc2)nc2c1c(C)nn2CCO,12,·
Cc1[nH]c2ccccc2c1Cc1nc2ccccc2[nH]1,-8,0.1

# Some of these compounds in order of SMILES length, highest first:
SMILES,Sa helicase inh,MgrA-DNA mod
CCOC(=O)C1CCN(C(=O)CCS(=O)(=O)c2ccc3c(c2)CC(C)N3C(=O)CC)CC1 (stereo not given),-19,·
Cc1nc2c(C(=O)NCC3CCCO3)cnn2c(C)c1Cc1ccccc1Cl (stereo not given),9,-0.1
CC1(C)CC(=O)C=C(NCc2ccc(C(=O)O)cc2)C1,5,-6.0
Cc1cc(-c2ccc(Cl)cc2)nc2c1c(C)nn2CCO,12,·
CCCNc1ncnc2onc(-c3ccc(F)cc3)c12,19,·

# Carrying on:
SMILES,Sa helicase inh,MgrA-DNA mod
CC(C)N1C(=O)C2ON(c3ccccc3)C(c3cccs3)C2C1=O (stereo not given),20,·
CC1CC(C)CN(Cc2csc3c2CCCC3)C1 (stereo not given),-5,·
Cc1ccc(NC(=O)CC#N)c(C)c1,·,-2.5
O=C(O)c1ccc(OCC(F)(F)F)nc1,·,1.2
Cn1c(=O)n(C)c2cc(Nc3nc4ccc(Cl)cc4n4nnnc34)ccc21,-21,·
CC(Sc1ncnc2c1cnn2-c1ccccc1)C(=O)NC(N)=O (stereo not given),-4,·
Cc1cc(/C=N\NC(=O)COc2cccc3cccnc23)c(C)n1-c1cccnc1,-25,·
N/C(=N\c1nc2ccccc2s1)NC(=O)c1cccc(Cl)c1,-9,1.6
COc1ccc2c(c1)C(=NO)c1cc(OC)ccc1-2,19,·
O=C(Nc1ccn(-c2ccccc2)n1)c1ccccc1Br,-4,2.0
Fc1ccc(-c2noc3ncnc(N(Cc4ccco4)CC4CCCO4)c23)cc1 (stereo not given),13,·
Cc1noc(C)c1COC(=O)c1ccc(S(=O)(=O)N(C)C)cc1,-7,·
OC(c1ccccc1)C(O)c1ccccc1 (stereo not given),12,-0.6
CC1Cc2cc(C(=O)CSc3nnc(Cc4cccs4)n3C)ccc2N1S(C)(=O)=O (stereo not given),1,·
CC(Sc1nncs1)C(=O)N1c2ccccc2CC1C (stereo not given),-13,·
CCN(c1ccccc1)S(=O)(=O)c1ccc2[nH]cc(C(=O)N3CCC(C)CC3)c(=O)c2c1,11,0.2
CC(C)(C)c1ccc(C(=O)Nc2c3c(nn2C(C)(C)C)CSC3)cc1,21,·
CC1Cc2ccccc2N1C(=S)Nc1ccc(S(N)(=O)=O)cc1 (stereo not given),2,-3.5
O=C(NC(=O)c1csnn1)Nc1nc2ccccc2s1,·,2.2
Cn1nc(-c2ccccc2)c(C(O)c2cccs2)c1Cl (stereo not given),·,1.1
O=c1c(-c2nnnn2-c2ccc(Cl)cc2)c[nH]c2ccccc12,-15,·
CCC12CN(S(=O)(=O)c3ccccc3)CC(CC)(CN(S(=O)(=O)c3ccccc3)C1)C2=O,3,1.6
COc1ccc(Oc2ccccc2C#N)cc1,·,0.8
CCOc1cc(/C=C2\C(=N)N3C(C)=CSC3=NC2=O)ccc1OCc1ccc2c(c1)OCO2,7,1.1
